TRPML1 blocker: blocks the human TRPML1 channel | activity change, negative = inhibition, % (concentration not given with the values) | actives 0.02% (n = 390,000) | TRPML1-inducible cells, Ca2+ dye fluorescence, FDSS; active compounds read low; inhibition of EC80 agonist-evoked calcium signal | Q9GZU1 | AID 624415; in the data active means activity change below about -50%; inconclusive means about -30% to -50%; inactive means above about -30%;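 note: stimulus is agonist 54-4 at its EC80 concentration; % is set by controls: 0 for no effect and ±100 for the full control effect; the text of the record puts the active cut at -80%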
Target sequence (Q9GZU1 whole entry, looked up): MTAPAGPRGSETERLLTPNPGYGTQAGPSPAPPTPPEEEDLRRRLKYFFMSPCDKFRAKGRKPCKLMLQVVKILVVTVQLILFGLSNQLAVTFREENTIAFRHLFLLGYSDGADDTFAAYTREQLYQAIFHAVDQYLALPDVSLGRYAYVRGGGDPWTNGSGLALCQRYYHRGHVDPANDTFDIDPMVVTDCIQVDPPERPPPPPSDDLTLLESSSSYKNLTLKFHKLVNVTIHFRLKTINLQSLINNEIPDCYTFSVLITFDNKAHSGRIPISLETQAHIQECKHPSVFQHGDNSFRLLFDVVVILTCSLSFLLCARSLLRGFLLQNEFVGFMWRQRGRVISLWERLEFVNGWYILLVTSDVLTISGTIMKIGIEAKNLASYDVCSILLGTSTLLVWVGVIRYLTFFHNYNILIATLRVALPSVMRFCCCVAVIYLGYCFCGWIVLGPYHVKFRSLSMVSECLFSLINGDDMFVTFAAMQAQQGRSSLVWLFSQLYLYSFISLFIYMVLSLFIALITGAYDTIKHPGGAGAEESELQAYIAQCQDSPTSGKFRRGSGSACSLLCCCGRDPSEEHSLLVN
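TRPML1-DL cells, Tet-induced overnight (~16 h, 37 °C) at 1,500 cells/well, were loaded with Ca8 no-wash dye plus quencher for 45-90 min at room temperature. Compounds were pinned during FDSS kinetic reading; agonist 54-4 at EC80 (4 uM final) then added.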
TRPML1 agonist: agonists of human TRPML1 channel; Q9GZU1; TRPML1-expressing cells, Ca2+ dye fluorescence, FDSS; host cell line not named in the record; reference of the full effect not given here; activation, % (concentration not given with the values); actives 0.12% (n = 410,000); AID 624414; in the data active = activation above about 50%; inconclusive = about 30% to 50%; inactive = below about 30%; note: 0% is about no effect; the text of the record puts the active cut at 80%
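Calcium fluorescence on an FDSS kinetic reader gave the read-out. Tet-induced TRPML1-DL cells were plated overnight, dye-loaded (Ca8 with quencher, 45-90 min, room temperature, dark), then read 110 s after compound addition, and again 110 s after 4uM final 54-4 (EC80).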
* marks the source's active call; other numbers are inactive results. These rows are one share of the data; count on the stated rates, not on these rows.

SMILES	TRPML1 blocker	TRPML1 agonist
Cc1cccc(N2CCN(C(=O)c3cnn(-c4ccccc4)c3C3CCN(C(=O)OC(C)(C)C)CC3)CC2)c1C	7	3.2
Cc1ccc(C)c(CN2C(=O)C(O)(c3c[nH]c4ccccc34)c3ccccc32)c1 (stereo not given)	39	0.8
COCCCNC(=O)C1CCN(c2cc(C)nc3c(-c4ccc(OC)c(OC)c4)c(C)nn23)CC1	15	-0.4
CCCCOc1ccccc1C1CC(=O)Nc2ccc3ccccc3c21 (stereo not given)	13	1.2
N#Cc1c[nH]n2c(NC3CCCC3)c(-c3cccc(Br)c3)nc12	-3	-1.1
Cc1ccc(-c2onc(C)c2C)cc1S(=O)(=O)Nc1cccc(Cl)c1C	53	2.5
CCc1nn(CC(=O)NC2CC2)c(=O)c2cc3c(OC)cccc3n12	-21	-1.0
CN1CCc2c(sc3c2C(=O)NC(c2ccc(OC(=O)c4ccccc4)cc2)N3)C1 (stereo not given)	17	5.8
Cc1ccccc1-c1noc(CCC(=O)Nc2cccc(C)c2C)n1	-10	-1.0
Cc1ccc(S(=O)(=O)N(Cc2nc(-c3cccc(C)c3)no2)C2CCCCC2)cc1	30	2.4
CC12CCC=CC1C(c1ccoc1)N(Cc1ccccc1)C2=O (stereo not given)	25	3.4
COc1ccc(CCNC(=O)Cn2ncc3c(=O)oc4ccccc4c32)c(OC)c1	2	-1.0
CC1C(=O)N2CCCc3cc(S(=O)(=O)Nc4ccc(Br)cc4F)cc1c32 (stereo not given)	-17	-0.2
Fc1ccc(Nc2nc(SCc3cccc(F)c3)nc3ccccc23)cc1	5	3.5
CCc1ccc(C(=O)c2cn(CC(=O)Nc3cc(C)ccc3C)c3nc(C)ccc3c2=O)cc1	-4	1.0
COc1ccc(N2CCN(S(=O)(=O)CCNC(=O)COc3ccccc3F)CC2)cc1	49	1.0
COc1cc(NC(=O)Cn2c(=O)n(CC3CCC(C(=O)NCCc4ccccc4)CC3)c(=O)c3ccccc32)cc(OC)c1 (stereo not given)	0	-0.2
COc1ccc(CNC(=O)CN2C(=O)CSc3ccc(S(=O)(=O)N(C)C)cc32)cc1	-16	-0.8
Cc1ccccc1NC(=O)[C@H](CSCc1ccccc1)N1Cc2ccccc2C1=O	19	0.1
Cc1ccc(-c2nnc(Nc3ccc(OCC(N)=O)cc3)c3ccccc23)cc1S(=O)(=O)NCC1CCCO1 (stereo not given)	9	-0.7
CCOC(=O)c1c(N)n(-c2cccc(C)c2C)c2nc3ccccc3nc12	8	0.1
CC1=Nc2cc(C(=O)NC3CCCC3)ccc2Sc2ccc(C)cc21	4	-1.0
CC(C)NC(=O)c1ccc2c(c1)nc1n2CCCCC1	-14	0.3
Cc1cccc(-c2nc(CSc3nncn4c3cc3sccc34)c(C)o2)c1	-1	-0.6
Cc1ccc2c(c1)c(=O)c(S(=O)(=O)c1ccc(C)c(C)c1)cn2CC(=O)Nc1ccccc1	-1	0.6
COc1ccc(C)cc1NC(=O)c1cc(S(=O)(=O)N2CCN(c3cccc(C)c3C)CC2)ccc1F	-12	0.6
O=C(CCCN1C(=O)c2cccnc2Oc2ccc(Cl)cc21)NCc1ccc(F)cc1	-8	2.7
COc1ccccc1CNC(=O)C(C)n1c(=O)cc(C(F)(F)F)c2c(C)nn(C)c21 (stereo not given)	-14	0.3
Cc1nnc(SCc2cc(=O)c3ccccc3[nH]2)s1	15	0.6
Cc1ccc(C)c(NC(=O)C(C)N(c2ccccc2)S(C)(=O)=O)c1 (stereo not given)	-11	-1.0
Cc1ccccc1NC(=O)CSc1cn(CC(=O)N2CCCC2)c2ccccc12	-1	0.2
COc1ccc(-c2noc(C3CC(=O)N(c4cc(C)cc(C)c4)C3)n2)cc1 (stereo not given)	-10	1.8
COc1cccc(CNC(=O)c2ccc(-n3c(C)cc4c3CCC(C)C4)cc2)c1 (stereo not given)	3	0.3
O=C(NCCc1ccccc1)c1nn(-c2ccccc2F)nc1CO	-16	1.6
COc1ccc(CCNC(=O)Cn2c(=O)n(-c3ccccc3)c(=O)c3c(C)c(C)sc32)cc1OC	26	4.0
COC(=O)c1ccccc1NC(=O)Cn1c(=O)n(-c2cccc(C(F)(F)F)c2)c(=O)c2c(C)c(C)sc21	-26	0.8
Cc1cc2c(cc1NC(=O)c1ccccc1C)n(C)c(=O)c(=O)n2C	0	1.3
COc1ccccc1N1CCN(C(=O)c2oc3ccccc3c2NC(=O)C(C)Oc2ccccc2)CC1 (stereo not given)	-8	-0.5
COC(=O)c1cc2oc(C)cc2n1Cc1c(C)cc(C)cc1C	-13	0.6
Cc1cccc(CN2C(=O)c3ccccc3Sc3ccc(C(=O)NCc4cccs4)cc32)c1	16	0.5
O=C(Nc1ccc(Cl)c(Cl)c1)c1cc(S(=O)(=O)N2CCN(c3cccc(Cl)c3)CC2)ccc1F	-1	1.3
CCOc1ccc(CNC(=O)CCc2cn(CC)c3ccccc23)cc1	20	1.5
COc1ccc(CCNC(=O)Cn2c(=O)c3cccn3c3ccc(F)cc32)cc1OC	31	1.5
CCOc1ccc(NC(=O)N2CCC(CN3CCc4ccccc4C3)CC2)cc1	9	1.5
CCCOC(=O)c1ccc(Cn2nnc3sc4c(c3c2=O)CCC(C)C4)cc1 (stereo not given)	-6	1.9
CCn1cc(/C=C(\NC(=O)c2cc(OC)c(OC)c(OC)c2)C(=O)NCCCn2ccnc2)c2ccccc21	50	0.4
N#CC1=C2SCN(C3CCCCC3)CN2C(=O)CC1c1ccc(Cl)cc1 (stereo not given)	-4	-1.0
N#Cc1ccccc1NC(=O)C(=O)NCC(c1ccc2c(c1)OCO2)N1CCN(c2ccccc2)CC1 (stereo not given)	-19	0.4
CCCSCCCNC(=O)c1cc2n(n1)CCCN(Cc1ccc(C)cc1)C2=O	7	-0.1
CC(Nc1oc(-c2ccc(COc3ccccc3)o2)nc1C#N)c1ccccc1 (stereo not given)	16	1.4

Later entries
SMILES	TRPML1 blocker	TRPML1 agonist
COc1cccc(CNC(=O)CN2C(=O)N(c3cc(C)ccc3C)S(=O)(=O)c3ccccc32)c1OC	-9	-0.4
Cc1ccc2nc(N(Cc3cccnc3)C(=O)c3cccs3)sc2c1	53	3.6
CCOc1ccc(OCC(=O)NCCS(=O)(=O)N2CCN(c3cccc(Cl)c3)CC2)cc1	1	-0.9
CC(=O)c1ccc(NC(=O)C2CCC(CNS(=O)(=O)c3cccs3)CC2)cc1 (stereo not given)	-3	5.3
CCOc1cc(C)c(C(C)C)cc1S(=O)(=O)n1ccnc1CC	82	3.4
COc1cc2ccccc2cc1C(=O)N1CCN(c2nc3ccc(F)cc3s2)CC1	-27	1.3
COC(=O)CN1C(=O)[C@@H]2[C@H](C1=O)[C@@H]1CC(C(=O)OC)=C[C@@H](C(=O)OC)C3C1=C(C(=O)C31CCCCC1)[C@@H]2C (stereo not given in full)	-10	1.5
Cc1cc(C)c(NC(=O)CSC2=Nc3ccccc3C3=NC(CC(=O)NCc4cccs4)C(=O)N23)c(C)c1 (stereo not given)	8	0.7
CCOCCCn1c(=N)c(S(=O)(=O)c2ccc(C)cc2)cc2c(=O)n3ccccc3nc21	-9	2.0
COC(=O)C1=C[C@@H](C(=O)OC)C2C3=C(C(=O)[C@]2(C)NC(=O)c2ccccc2)[C@H](C)n2c(=O)n(C)c(=O)n2[C@@H]3C1 (stereo not given in full)	14	0.7
Cn1c(CNC(=O)CSc2n[nH]c(-c3ccccc3)n2)nc2ccccc21	4	-0.3
Cc1ccc(S(=O)(=O)c2nnn3c2nc(NCc2ccccc2)c2sccc23)cc1	-11	-0.4
CCCc1cc(=O)[nH]c(Nc2ccc(C(=O)O)cc2)n1	-3	-0.6
Fc1ccc(-c2cc(-c3nc(-c4ccc(Cl)cc4)no3)[nH]n2)cc1	-10	-0.4
Cc1cc(C)cc(-n2ccnc2SCC(=O)Nc2ccc(C)c(Cl)c2)c1	3	1.1
CC(=O)c1cccc(NC(=O)c2ccc3c(c2)c(C)c(C)n3Cc2ccc(Cl)cc2)c1	10	0.8
O=C1C2=C(Nc3ccccc3SC2c2ccc(C(F)(F)F)cc2)c2ccccc21 (stereo not given)	-9	-0.5
CCCSCCCNC(=O)c1ccc2c(c1)sc1nc(-c3ccc(OCC)cc3)cn12	-10	-0.5
CCOC(=O)c1c(S(=O)(=O)N2CCC(C(=O)Nc3ccc(C)c(Cl)c3)CC2)c(C)n(C)c1C	-19	0.1
Cn1c(SCc2ccc(F)cc2)nc2ccc(C(=O)NCc3ccc(Cl)cc3)cc21	-2	4.4
COc1ccc(/C=C/C(=O)Nc2ccc3nc(N4CCCCC4)cc(C)c3c2)cc1OC	13	1.0
COc1cccc(CNC(=O)Cn2c(=O)oc3cc(S(=O)(=O)N4CCCC4)ccc32)c1	-1	-0.4
CC(C)c1ccc(OCC(=O)NCCS(=O)(=O)N2CCN(c3ccc(F)cc3)CC2)cc1	36	1.6
COc1ccc(-n2c(=O)c3ccccc3n(Cc3ccc(F)cc3Cl)c2=O)cc1OC	-7	-0.8
COc1cccc(CNC(=O)Nc2ccc3c(c2)N(C)C(=O)c2ccccc2S3)c1	48	2.7
Cc1ccc(CC(=O)NCc2nc(-c3cccc(C)c3)no2)cc1	6	0.1
CCCCN(CC)C(=O)CSc1nc2n[nH]c(C)c2c(=N)n1-c1ccc(CC)cc1	18	4.0
CCC(=O)N1CCc2cc(S(=O)(=O)NCCC(=O)NCc3ccc(C)cc3)ccc21	-7	-0.2
CC1CCCCN1S(=O)(=O)c1ccc2c(c1)oc(=O)n2CC(=O)Nc1ccc(Cl)cc1 (stereo not given)	11	-0.5
COc1cccc(C2C(C(=O)Nc3ccccc3OC)=C(C)Nc3nc4ccccc4n32)c1 (stereo not given)	-14	-0.2
O=C(NCc1ccccc1)c1ccc2c(c1)N(Cc1cccc(Cl)c1)C(=O)c1ccccc1S2(=O)=O	10	-0.2
O=c1c2sccc2n(Cc2cc(=O)n3ccccc3n2)c(=O)n1-c1cccc(C(F)(F)F)c1	-10	0.8
O=C(Nc1c(-c2ccc(F)cc2)nc2ccccn12)c1cccc(F)c1	-1	-0.5
CCn1c(=O)cc(OCC(=O)N2CCN(c3ccccc3OC)CC2)c2ccccc21	8	-0.5
CCOc1ccc(CNC(=O)Cn2c(=O)c3cccn3c3ccc(F)cc32)cc1	-20	2.2
CCOc1ccc(NC(=O)Cn2c(=O)n(CCc3ccccc3)c(=O)c3c4c(sc32)CN(C(C)=O)CC4)cc1	-5	0.8
Cc1ccc(NC(=O)c2cc(S(=O)(=O)N3CCCCC3)c[nH]2)cc1N(C)C	-15	1.1
O=C(CN1CCN(Cc2ccc(F)cc2)C1=O)NCc1ccccc1Cl	-7	-0.9
Cc1ccc(C)c(NC(=O)/C(C#N)=C/c2ccc(C(C)C)cc2)c1	-12	0.1
Cc1ccc(S(=O)(=O)c2nnn3c2nc(NCCc2ccccc2)c2sccc23)cc1	45	0.9
COc1ccc(OC)c(NC(=O)CC(=O)Nc2ccc3nc4n(c(=O)c3c2)CCCCC4)c1	-11	-0.9
Cc1ccc(CNC(=O)Cn2c(=O)n(-c3ccc(C)cc3)c(=O)c3c2c2cc(C)ccc2n3C)cc1	12	0.2
CC1(C(=O)NC2CCCCC2)Cc2ccccc2C(=O)N1Cc1ccc(F)cc1 (stereo not given)	-8	2.9
O=C(NCCS(=O)(=O)N1CCN(c2cccc(Cl)c2)CC1)C(c1ccccc1)c1ccccc1	-18	2.2
CC(C)CCn1c(=O)c2sccc2n2c(CCCC(=O)NCCc3ccccc3)nnc12	4	-0.4
CCOc1ccc2c(c1)c(=O)c(C(=O)c1ccc3c(c1)OCO3)cn2Cc1cccc(F)c1	24	3.7
Cc1cccc(Nc2sc(C(=O)c3ccc(Cl)cc3)c(N)c2C(N)=O)c1	-14	0.9

Structural class, the entries above containing two or more sulfur atoms.
SMILES	TRPML1 blocker	TRPML1 agonist
COc1ccc(CNC(=O)CN2C(=O)CSc3ccc(S(=O)(=O)N(C)C)cc32)cc1	-16	-0.8
Cc1cccc(-c2nc(CSc3nncn4c3cc3sccc34)c(C)o2)c1	-1	-0.6
Cc1nnc(SCc2cc(=O)c3ccccc3[nH]2)s1	15	0.6
Cc1cccc(CN2C(=O)c3ccccc3Sc3ccc(C(=O)NCc4cccs4)cc32)c1	16	0.5
Cc1ccc2nc(N(Cc3cccnc3)C(=O)c3cccs3)sc2c1	53	3.6
CC(=O)c1ccc(NC(=O)C2CCC(CNS(=O)(=O)c3cccs3)CC2)cc1 (stereo not given)	-3	5.3
Cc1cc(C)c(NC(=O)CSC2=Nc3ccccc3C3=NC(CC(=O)NCc4cccs4)C(=O)N23)c(C)c1 (stereo not given)	8	0.7
Cc1ccc(S(=O)(=O)c2nnn3c2nc(NCc2ccccc2)c2sccc23)cc1	-11	-0.4
CCCSCCCNC(=O)c1ccc2c(c1)sc1nc(-c3ccc(OCC)cc3)cn12	-10	-0.5
Cc1ccc(S(=O)(=O)c2nnn3c2nc(NCCc2ccccc2)c2sccc23)cc1	45	0.9

Assay outcomes: PubChem, National Center for Advancing Translational Sciences (NCATS)
